MgrA DNA FP = S. aureus MgrA-DNA binding modulation | fluorescence polarization | 84,000 tested, 0.13% active | inhibition, %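 (about 10 µg/mL by stock and volumes)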;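 active = above 50% in either of two replicates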;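 note: 0% = protein plus DNA without compound and 100% = DNA alone without protein; higher means less MgrA bound to DNA so lower polarization; one replicate is shown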
Sa helicase inh = S. aureus DNA helicase inhibition | AID 485395 | inhibition, %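 (tested at about 80 µM)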 | purified S. aureus helicase, fluorescence unwinding assay; about half of the hits fall short of the stated cut | 120,000 tested, 0.05% active;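 active = both duplicates at 50% or more, or one of them with a favoured structure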;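 note: 0% = mean of negative control wells and 100% = mean of positive control wells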
Starred values were filed as active, the others as inactive.

Results for Cc1cc(C)nc(NC(N)=NC(C)c2ccccc2)n1 (configuration not stated) ?
MgrA DNA FP: -1.3; Sa helicase inh: 11.0

Results for CCCCN(C)C(=O)C1CCCN(c2nnc(C)c3c(C)n(-c4ccccc4)nc23)C1 (configuration not stated) ?
Sa helicase inh: -17.0

Results for COc1ccc(CC(=O)OCC(=O)NC2CC2)cc1 ?
Sa helicase inh: 1.0

Results for O=C1NC2(CCCc3sccc32)C(=O)N1CCN1C(=O)c2ccccc2C1=O (configuration not stated) ?
Sa helicase inh: -5.0

Results for COCCN(Cc1nc2ccccc2c(=O)[nH]1)C(=O)C1=NN(c2cccc(C)c2)C(=O)CC1 ?
Sa helicase inh: 4.0

Results for Cn1c(CCCNC(=O)C(C)(C)C)nc2ccccc21 ?
Sa helicase inh: -8.0

What do the screens show for `CCS(=O)(=O)C1=NN2C(=N)/C(=C\c3ccc(OC)cc3)C(=O)N=C2S1`?
Sa helicase inh: -12.0

Results for COc1cc(Cl)c(C)cc1NC(=O)COC(=O)C(C)C ?
MgrA DNA FP: -0.9; Sa helicase inh: -3.0

How did O=C(Cc1ccc(Cl)cc1)Nc1ccccc1C(=O)N1CCOCC1 do in these assays?
MgrA DNA FP: -9.6; Sa helicase inh: 22.0

Results for COCCN(C(=O)c1ccco1)c1nnc(-c2ccc(F)cc2)s1 ?
MgrA DNA FP: -0.4; Sa helicase inh: -3.0

What do the screens show for `COC(=O)C1=C(CN(C)CCc2ccc(OC)c(OC)c2)NC(=O)NC1c1cccc(OC)c1` (configuration not stated)?
MgrA DNA FP: -0.1; Sa helicase inh: 19.0

How did CC(C)(C)C(=O)/C=C/Nc1ccc(F)cc1 do in these assays?
MgrA DNA FP: 0.9; Sa helicase inh: 8.0

How did CC(Oc1ccccc1)C(=O)O (configuration not stated) do in these assays?
MgrA DNA FP: -2.8; Sa helicase inh: -8.0

Results for CC(=O)Oc1ccc(Nc2nc3nonc3nc2Nc2ccccc2)cc1 ?
MgrA DNA FP: 3.0; Sa helicase inh: -2.0

How did COc1ccc(/C=N/c2nc3ccccc3n2Cc2ccc(Cl)cc2)cc1OC do in these assays?
MgrA DNA FP: 0.8; Sa helicase inh: -12.0

How did CSc1sc(C(N)=S)c2c1C(=O)CCC2 do in these assays?
MgrA DNA FP: -0.6

Results for Cc1cc(-c2cn3nc(-c4ccccc4)c(-c4ccccc4)nc3n2)c(C)n1Cc1ccco1 ?
Sa helicase inh: -305.0

How did O=C(NC(=O)c1csnn1)Nc1ncccn1 do in these assays?
MgrA DNA FP: 4.0

How did Nn1c2ccccc2n2cc(-c3ccccc3)nc12 do in these assays?
MgrA DNA FP: 0.2; Sa helicase inh: -18.0

How did O=c1ccnc(SCc2c(Cl)cccc2Cl)[nH]1 do in these assays?
MgrA DNA FP: -1.6

What do the screens show for `Cc1c(C#N)c(N)n(Cc2cc(C(F)(F)F)cc(C(F)(F)F)c2)c1C`?
Sa helicase inh: 14.0

Results for c1ccc(Nc2cc(-c3ccccc3)[nH]n2)cc1 ?
MgrA DNA FP: -1.9; Sa helicase inh: 0.0

How did O=C1CNC(=S)N1CCc1ccc(O)c(O)c1 do in these assays?
Sa helicase inh: -5.0

Results for c1ccc2c(c1)ncn2CCN1CCOCC1 ?
MgrA DNA FP: 1.6; Sa helicase inh: -6.0

What do the screens show for `N#CC(=NCc1cccnc1)C1=C(O)c2ccccc2C1=O`?
MgrA DNA FP: -1.7

How did N#Cc1ccc(OCCOCCn2cncn2)cc1 do in these assays?
MgrA DNA FP: -1.1; Sa helicase inh: 4.0

Results for Cc1cccc(C)c1N1CCN(C(=O)N2CCCCC2)CC1 ?
MgrA DNA FP: 29.4; Sa helicase inh: -3.0

How did Oc1ccc(CNCC2NCCc3ccccc32)cc1Cl (configuration not stated) do in these assays?
MgrA DNA FP: -0.2; Sa helicase inh: -15.0

Results for O=C(CSc1nccn1-c1ccccc1)NCc1ccccc1 ?
Sa helicase inh: 17.0

How did CCN1C(=O)c2ccccc2S(=O)(=O)c2ccc(C(=O)NCCN3CCCCCC3)cc21 do in these assays?
MgrA DNA FP: -0.3; Sa helicase inh: 13.0

What do the screens show for `COc1ccc(Cl)cc1-n1c(C)nc2cc(C(=O)NCC(OC)OC)ccc21`?
MgrA DNA FP: 0.1; Sa helicase inh: 9.0

How did CC(C)(C)C(=O)NCC(=O)O do in these assays?
Sa helicase inh: -10.0

Results for Oc1ccc(-c2csc(-c3ccccc3)n2)cc1O ?
MgrA DNA FP: 4.7; Sa helicase inh: 5.0

What do the screens show for `Oc1oc(-c2ccc(Br)cc2)nc1C=Nc1cccc(C(F)(F)F)c1`?
MgrA DNA FP: -0.8

Results for CCOc1ccc(C(=O)NC(C(=O)NCC2CCCO2)C(C)C)cc1 (configuration not stated) ?
Sa helicase inh: 6.0

Results for COc1cc(OC)c(S(=O)(=O)N(C)c2ccccc2)cc1S(=O)(=O)N(C)c1ccccc1 ?
MgrA DNA FP: -1.9; Sa helicase inh: -1.0

What do the screens show for `N#Cc1ccccc1NC(=O)CN1CCN(S(=O)(=O)/C=C/c2ccccc2)CC1`?
Sa helicase inh: -2.0

Results for O=C(c1ccccc1)N1CCN(S(=O)(=O)c2ccccc2)CC1 ?
MgrA DNA FP: -1.2; Sa helicase inh: 5.0

What do the screens show for `COc1ccc(Nc2cc(C(=O)NCCCN3CCCC3)c3ccccc3n2)cc1`?
MgrA DNA FP: 0.7; Sa helicase inh: -10.0

Results for COC(=O)c1noc(C)c1-c1ccnn1C(=O)c1ccc(Cl)cc1 ?
Sa helicase inh: 3.0

Ordered by molecular weight (falling): some entries from above.
What do the screens show for `Oc1oc(-c2ccc(Br)cc2)nc1C=Nc1cccc(C(F)(F)F)c1`?
MgrA DNA FP: -0.8

How did COc1ccc(/C=N/c2nc3ccccc3n2Cc2ccc(Cl)cc2)cc1OC do in these assays?
MgrA DNA FP: 0.8; Sa helicase inh: -12.0

What do the screens show for `COc1ccc(Cl)cc1-n1c(C)nc2cc(C(=O)NCC(OC)OC)ccc21`?
MgrA DNA FP: 0.1; Sa helicase inh: 9.0

How did Oc1ccc(CNCC2NCCc3ccccc32)cc1Cl (configuration not stated) do in these assays?
MgrA DNA FP: -0.2; Sa helicase inh: -15.0

Results for Oc1ccc(-c2csc(-c3ccccc3)n2)cc1O ?
MgrA DNA FP: 4.7; Sa helicase inh: 5.0

How did N#Cc1ccc(OCCOCCn2cncn2)cc1 do in these assays?
MgrA DNA FP: -1.1; Sa helicase inh: 4.0

The list goes on.
What do the screens show for `CSc1nc(C)cc(-n2ccc(=O)[nH]c2=O)n1`?
Sa helicase inh: -1.0

How did COc1ccc(/C=C2\SC(=O)N(CCNS(=O)(=O)c3ccccc3OC)C2=O)cc1 do in these assays?
Sa helicase inh: -3.0

What do the screens show for `Cc1nn(CC(=O)Nc2ccccc2F)c(=O)c2cccn12`?
Sa helicase inh: 10.0

What do the screens show for `O=C(CCn1c(=O)oc2ccccc21)N(Cc1ccccc1)c1ccccc1`?
Sa helicase inh: -5.0

Results for OC(CNC1Cc2ccccc2C1)COc1ccc(F)cc1 (configuration not stated) ?
MgrA DNA FP: -0.5

What do the screens show for `O=C(O)c1ccccc1C(=O)NC1Cc2ccccc2C1`?
MgrA DNA FP: -4.8

What do the screens show for `COc1ccc(C(=O)Nc2ccc(CN3CCCCC3)cc2)cc1`?
MgrA DNA FP: 6.2; Sa helicase inh: 9.0

How did O=C(Cc1c(Cl)cccc1Cl)OCC(=O)c1cc2ccccc2o1 do in these assays?
MgrA DNA FP: 0.6; Sa helicase inh: -29.0

Results for O=C(O)C1C2C=CC3(CN(c4ccccc4)C(=O)C13)O2 (configuration not stated) ?
Sa helicase inh: -2.0

What do the screens show for `Cc1ccc(NC(=O)c2cc(-c3ccc(O)cc3)on2)cc1`?
Sa helicase inh: 6.0

Results for Cc1ccc(Oc2coc3cc(OCC(=O)N4CCCCC4)ccc3c2=O)cc1 ?
MgrA DNA FP: 0.9; Sa helicase inh: 4.0

How did CC(C)c1ccc(C2C3=C(CC(C)(C)CC3=O)OC3=C2C(=O)CC(C)(C)C3)cc1 do in these assays?
MgrA DNA FP: 1.5

Results for CN1CCC(OC(=O)c2ccc(Cl)cc2Cl)CC1 ?
MgrA DNA FP: 1.4; Sa helicase inh: -2.0

Results for N/C(COc1cc(Cl)cc(Cl)c1)=N\O ?
Sa helicase inh: 17.0

How did Cc1ccc(-c2csc(NC(=O)c3ccccc3F)n2)cc1C do in these assays?
Sa helicase inh: -15.0

What do the screens show for `CC(C)NCC(O)COc1ccc(CCOCC2CC2)cc1` (configuration not stated)?
MgrA DNA FP: -5.4

Results for Cc1nc(N=C(N)N)sc1Br ?
MgrA DNA FP: -2.3

Results for CC1CCN(CCCNC(=O)CCn2nc(-c3ccccc3)ccc2=O)CC1 ?
Sa helicase inh: 11.0

What do the screens show for `COc1ccc(N2CCN(C(=O)c3ccccc3OC)CC2)cc1`?
MgrA DNA FP: -4.8; Sa helicase inh: 22.0

How did CCOC(=O)c1cnc2c(-c3ccccc3)cnn2c1C do in these assays?
MgrA DNA FP: -4.6; Sa helicase inh: 15.0

Gathered by group: the entries above containing a CF3 group
What do the screens show for `Cc1c(C#N)c(N)n(Cc2cc(C(F)(F)F)cc(C(F)(F)F)c2)c1C`?
Sa helicase inh: 14.0

What do the screens show for `Oc1oc(-c2ccc(Br)cc2)nc1C=Nc1cccc(C(F)(F)F)c1`?
MgrA DNA FP: -0.8

Other results.
Results for N#Cc1ccccc1Sc1ccccc1C(=O)OCC(=O)NC1CC1 ?
Sa helicase inh: 13.0

How did COCCn1c(SCC(=O)N2c3ccccc3CC2C)nc2ccccc2c1=O (configuration not stated) do in these assays?
Sa helicase inh: 4.0

Results for COc1ccc(-c2nnc(NC(=O)c3ccc(S(=O)(=O)N(C)C)cc3)s2)c(OC)c1 ?
MgrA DNA FP: 0.5

Results for CC(=O)[C@H]1C(=O)C[C@@](C)(O)[C@@H](C(C)=O)[C@@H]1c1ccccc1 ?
MgrA DNA FP: -1.6

How did COc1ccc(C(=O)c2c(C)n(C)c(=O)n(C)c2=O)cc1 do in these assays?
Sa helicase inh: 1.0

Results for O=C(c1cccs1)N1CCc2ccccc21 ?
Sa helicase inh: 24.0

Results for COc1ccc(C(=O)OCC(=O)NC23CC4CC(CC(C4)C2)C3)cc1S(=O)(=O)N1CCOCC1 ?
Sa helicase inh: 15.0

Results for CCOc1ccc(Cc2nc(C)c(CC(=O)N3CCOCC3)c(=O)[nH]2)cc1 ?
MgrA DNA FP: 0.7; Sa helicase inh: 4.0

Results for C=CS(=O)(=O)c1ccc(OC)c(N)c1 ?
MgrA DNA FP: -2.5; Sa helicase inh: 6.0

What do the screens show for `O=C(Nc1cccc(C(F)(F)F)c1)n1nc(C(F)(F)F)c2cnccc21`?
MgrA DNA FP: -2.6

Results for Cn1c(C(=O)O)ccc1S(=O)(=O)N1CCN(c2ccc(C(F)(F)F)cn2)CC1 ?
Sa helicase inh: -17.0

Results for O=C(NC(CO)C(O)c1ccc([N+](=O)[O-])cc1)C(Cl)Cl (configuration not stated) ?
MgrA DNA FP: -1.7

How did CC1=Nc2cc(C(=O)O)ccc2Sc2ccc(C)cc21 do in these assays?
Sa helicase inh: -9.0

What do the screens show for `COc1cc(NC(=S)N(C)C)cc(OC)c1`?
Sa helicase inh: -1.0

How did O=C(NCc1ccccn1)c1cc(-c2cccnc2)nc2ccccc12 do in these assays?
MgrA DNA FP: 1.5; Sa helicase inh: 20.0

Results for COCCN(Cc1cc2cc3c(cc2nc1Cl)OCO3)C(=O)Nc1ccccc1OC ?
MgrA DNA FP: 0.0; Sa helicase inh: 18.0

How did COc1ccc2nc(NC(=O)CC(C)(C)C)sc2c1 do in these assays?
MgrA DNA FP: 5.8; Sa helicase inh: 3.0

Results for COc1ccc(CNC(=O)c2coc(=O)c3ccccc23)cc1 ?
Sa helicase inh: 14.0

How did Cc1noc(C)c1C(=O)Oc1ccc(-c2csnn2)cc1 do in these assays?
MgrA DNA FP: -2.8

Results for CC(C)(C)C(=O)OC1OCCOC1OC(=O)C(C)(C)C (configuration not stated) ?
Sa helicase inh: 3.0

Results for CC(C)c1ccc(S(=O)(=O)N2CCCCC2)cc1 ?
Sa helicase inh: 1.0

What do the screens show for `CCC(=O)Nc1cccc(Br)c1`?
MgrA DNA FP: 0.6; Sa helicase inh: -10.0

Results for Cc1ccc(SCCC(=O)N2CCN(c3ncc(C(F)(F)F)cc3Cl)CC2)cc1 ?
MgrA DNA FP: 1.8

How did Cn1c(SCC(=O)c2ccc3c(c2)NC(=O)CO3)nc2ccccc21 do in these assays?
Sa helicase inh: -13.0

What do the screens show for `COC(=O)c1ccc(S(=O)(=O)NNc2ncnc3cc(C(C)(C)C)sc23)n1C`?
Sa helicase inh: -8.0

Results for CC(C)CCn1cnc2c(NCc3ccccc3)ncnc21 ?
MgrA DNA FP: -0.3; Sa helicase inh: -7.0

How did CCCN1C(=O)C(CC(=O)Nc2ccccc2)SC1=Nc1ccc(S(=O)(=O)N2CCOCC2)cc1 (configuration not stated) do in these assays?
Sa helicase inh: -6.0

What do the screens show for `C=CCOc1cccc(/C=C2/SC(=S)N(CCc3ccccc3)C2=O)c1`?
MgrA DNA FP: -0.2

Results for COC(=O)C(C(=O)N1CCN(Cc2ccccc2)CC1)C1CCCC1 (configuration not stated) ?
Sa helicase inh: 3.0

How did CSc1nc(-c2ccc(Cl)cc2)nn1S(=O)(=O)c1ccc(C)cc1 do in these assays?
MgrA DNA FP: -1.2; Sa helicase inh: 9.0

What do the screens show for `CC(C)NS(=O)(=O)c1ccc(OCC(=O)NC(C)(C)C)c(Cl)c1`?
MgrA DNA FP: 0.4; Sa helicase inh: -11.0

What do the screens show for `CCCN(C(=O)C1CC(=O)N(c2ccccc2C(C)CC)C1)C1CCS(=O)(=O)C1` (configuration not stated)?
Sa helicase inh: 4.0

What do the screens show for `CC(OC(=O)Cc1coc2cc3c(cc12)CCC3)C(=O)Nc1ccc2c(c1)OCO2` (configuration not stated)?
Sa helicase inh: -9.0

How did COC(=O)c1scc(C)c1S(=O)(=O)Nc1ccc(C)cc1 do in these assays?
MgrA DNA FP: 0.8

How did COc1ccc(-c2nnn(CC(=O)N(Cc3ccccc3)C(C)C(=O)NC3CCCC3)n2)cc1OC (configuration not stated) do in these assays?
MgrA DNA FP: 0.9; Sa helicase inh: 1.0

Assay outcomes: PubChem, ICCB-Longwood Screening Facility, Harvard Medical School

A portion of the library; count on the stated rates, not on these rows.
